# Assay outcomes from PubChem.
# Beta2AR agonist – agonists of human beta-2 adrenergic receptor inducing internalization; response, % (concentration not given with the values); hit rate 0.43% among 340,000; P07550; AID 504454; Am2.2-beta2AR cells, FAP receptor internalization, flow cytometry; reference of the scale not given here;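 active = response above a set limit, near 3 SD of response in nonfluorescent compounds, cut at about 42% in these data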;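 note: stock transfer was 100 nL into about 11 µL; a reference agonist was the positive control; negative values mostly stem from fluorescent compounds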
# Target sequence (P07550 whole entry, looked up): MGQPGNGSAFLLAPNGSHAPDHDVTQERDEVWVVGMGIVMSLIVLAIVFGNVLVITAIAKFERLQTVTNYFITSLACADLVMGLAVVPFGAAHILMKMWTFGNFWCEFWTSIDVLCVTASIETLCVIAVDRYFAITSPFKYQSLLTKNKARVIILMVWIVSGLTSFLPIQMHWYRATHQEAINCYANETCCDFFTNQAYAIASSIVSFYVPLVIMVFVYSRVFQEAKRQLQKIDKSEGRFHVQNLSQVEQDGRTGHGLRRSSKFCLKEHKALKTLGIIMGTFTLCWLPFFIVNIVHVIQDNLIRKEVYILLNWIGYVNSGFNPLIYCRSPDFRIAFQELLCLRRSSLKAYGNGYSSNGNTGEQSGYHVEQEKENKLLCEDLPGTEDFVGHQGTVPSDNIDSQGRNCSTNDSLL
# Bfl-1 A1 inh – inhibitors of the anti-apoptotic protein A1, read as caspase activation; hit rate 0.066% among 330,000; AID 2462; MEF A1-2A-BIM cells, Caspase-Glo 3/7 luminescence, 3 h; percent of clofoctol response, vehicle zero; caspase activation, % (concentration not given with the values);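 active = over half of replicate activation scores above 10%, or exactly half above 10 with the replicate mean above 10; inconclusive = replicate mean below 10 yet half the replicates above 10; inactive = over half of replicates below 10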;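 note: wells of about 30 µL received 50 nL stock; many hits fall short of the cut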
# UCH37 DUB inh – human UCH37 deubiquitinating enzyme inhibition | purified proteasome/UCH37, Ub-AMC cleavage fluorescence | Q9Y5K5 | inhibition, % (test concentration not listed) | hit rate 0.33% among 330,000;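 active = mean of two replicates above 20%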;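 note: 0% = compound-free wells with enzyme and 100% = wells lacking proteasome; stock transfer was 100 nL into about 20 µL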
# Target sequence (Q9Y5K5 whole entry, looked up): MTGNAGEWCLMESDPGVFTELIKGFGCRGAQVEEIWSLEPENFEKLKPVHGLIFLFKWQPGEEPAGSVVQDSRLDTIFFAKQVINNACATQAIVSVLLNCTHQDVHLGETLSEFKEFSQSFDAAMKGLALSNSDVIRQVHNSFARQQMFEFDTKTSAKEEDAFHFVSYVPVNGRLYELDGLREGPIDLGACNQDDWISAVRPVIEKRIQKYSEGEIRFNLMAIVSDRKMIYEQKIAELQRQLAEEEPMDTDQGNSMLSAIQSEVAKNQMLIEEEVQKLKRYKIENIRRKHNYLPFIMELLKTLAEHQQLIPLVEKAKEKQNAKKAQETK
#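 Assay system: Proteasome-bound UCH37. Buffer or medium: pH 7.4 Tris-HCl (50 mM) with ovalbumin, ATP-MgCl2, DTT. Incubation: 30 min preincubation with enzyme, 25 min cleavage at room temperature. Measured by: fluorescence, ex 355 nm, em 460 nm. Read-out basis: percent inhibition. Control set: wells without proteasome as full block, compound-free enzyme plus substrate as uninhibited.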
# Calb FLC – affects C. albicans growth with fluconazole | hit rate 0.57% among 300,000 | C. albicans CaCi-2 (fluconazole-resistant clinical isolate) + fluconazole, Alamar Blue growth, 48 h | growth inhibition, % (test concentration not listed);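 active = most replicates above 75%; inconclusive = exactly half above 75%; inactive = most below 75%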;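 note: all wells also contain fluconazole at 8 µg/ml as a sub-toxic cotreatment; 0% = median of DMSO wells and 100% = median of geldanamycin control wells; wells of about 8 µL received 7.5 nL stock; the first replicate is given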
# T cruzi inh – blocks replication of Trypanosoma cruzi; T. cruzi beta-gal in NIH3T3, luminescence, 90 h; inhibition, % (test concentration not listed); AID 1885; hit rate 1.4% among 300,000;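 active = mean inhibition across valid replicates above about 55%, limit read from the data; inconclusive = mean below that limit but half or more replicates reach it; inactive = mean below it, under half of replicates reach it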;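 note: signal also drops with host cell toxicity which is not excluded here; 0% = plate median of DMSO wells and 100% = zero luminescence signal; higher percent means less beta-gal luminescence so fewer parasites; stock transfer was 50 nL into about 50 µL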
# RanGTP-Imp inh – disruptors of Ran-importin-beta complex formation – biochemical, FRET, CFP-Ran, YFP-importin-beta, homogeneous, primary screen; cell-free CFP-Ran/YFP-importin-beta FRET ratio; inhibition, % (concentration not given with the values); hit rate 1.1% among 300,000; AID 2216;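 active = most replicates above 15%; inconclusive = exactly half above 15%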;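 note: 0% = DMSO wells and 100% = Ran loaded with GDP instead of GTP; wells of about 40 µL received 100 nL stock; the first replicate is given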
# Beta cell apopt – blocks beta cell apoptosis | hit rate 0.8% among 300,000 | INS-1E cytokine-induced death, ATP luminescence, 48 h; percent of positive-control rescue, neutral wells zero | protection from apoptosis, % (no concentration beside the values);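 active = all replicates at 75% or more, or half of them and the mean; inconclusive = half reach 75% but not the mean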;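 note: 0% = cytokine-treated negative control wells and 100% = positive control rescue; higher means more ATP so stronger rescue from cytokine killing; wells of about 40 µL received 100 nL stock; the first replicate is given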
# LANA-H2B inh – blocks KSHV LANA binding to histone H2A/H2B. Q9QR71. cell-free LANA-H2A/H2B peptide, fluorescence polarization. inhibition, % (no concentration beside the values). hit rate 0.6% among 320,000; in the data active = inhibition mostly above about 10%, no sharp cut-off; inactive = mostly below about 6.7%;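 note: stock transfer was 7.5 nL into about 10 µL; 0% = median of vehicle wells and 100% = median of positive control wells; one replicate is shown; the record names a cut of 25% in any replicate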
# * = called active by the depositor; i = inactive; ? = inconclusive; · = not tested or not shown. Not a hit list; about 4.3% have a hit in one of these screens.
SMILES,Beta2AR agonist,Bfl-1 A1 inh,UCH37 DUB inh,Calb FLC,T cruzi inh,RanGTP-Imp inh,Beta cell apopt,LANA-H2B inh
COCc1cc(C)nc(SCC(=O)Nc2cccc(C)c2)c1C#N,4,0.2,2.8,2,2,-0.7,-7,0.3
Cn1nc(C(=O)OCC(=O)c2ccc(Cl)cc2)c2ccccc2c1=O,-10,0.1,-0.4,·,·,·,-5,-4.4
CCOC(=O)c1csc(NC(=O)CSc2nnnn2-c2ccc(OCC)cc2)n1,-5,·,1.7,-8,-4,-3.3,·,·
O=C(CNC(=O)c1sc2ccccc2c1Cl)NCc1cccc(C(F)(F)F)c1,2,1.0,2.7,3,0,-4.2,·,3.5
C#CCNC(=O)C1=C[C@@H](C2CC2)C[C@@H](OCCCCO)O1,-1,-0.2,-0.9,-8,-5,4.4,-4,-4.2
Cc1cc2c(OCC(O)CNC(C)(C)C)cccc2[nH]1 (configuration not stated),1,-0.8,6.0,-2,12,-4.3,-1,7.2
Cc1ccc(NC(=O)CN(C)C(=O)CSc2ccc3c(c2)OCCO3)cc1,2,0.7,1.8,·,·,·,2,0.9
Clc1cccc(Cl)c1-c1nnc2cccc(Cl)n12,1,2.5,-0.8,11,-1,3.4,-10,-3.9
Cc1ccc(S(=O)(=O)N(C)c2cc(S(=O)(=O)N3CCC(C)CC3)c(C)cc2C)cc1,10,0.6,5.8,-1,14,-0.4,12,-3.2
Cc1ccc(NC=C(S(=O)(=O)c2ccccc2)S(=O)(=O)c2ccccc2)cc1,-9,0.0,4.0,-8,8,0.7,-19,1.5
Cc1cc(C)cc(NC(=S)/C(=C(\[O-])c2ccc(Cl)s2)[n+]2cccc(C)c2)c1,3,-0.1,3.1,-17,-2,1.5,-4,-2.2
Cc1ccc(S(=O)(=O)NCCC(=O)NCc2ccc3c(c2)OCO3)cc1C,-8,-0.3,3.0,-53,4,5.7,-5,-3.8
CCOC(=O)c1c(C)nc2c(c(SC)nn2-c2ccccc2)c1N,16,-0.8,1.9,-3,1,1.1,7,-1.2
CCCCSc1nc2[nH]ncc2c(=O)[nH]1,3,-0.4,-0.2,1,2,0.7,3,2.4
Cn1cnc2c(=O)[nH]cc([N+](=O)[O-])c21,-3,2.3,10,7,-15,?,3,-1.2
OCCCCc1nccc2c1[nH]c1ccccc12,-7,0.6,i,-4,-9,-2.4,-1,1.0
CCOC(=O)N1CCC(NC(=O)CS(=O)(=O)Cc2nc(-c3ccccc3Cl)oc2C)CC1,0,-0.6,1.5,-4,1,-1.6,-1,-3.6
COc1ccccc1CN(C(=O)CNC(=O)c1ccco1)C(C(=O)NCC1CCCO1)c1ccc(OC)c(OC)c1 (configuration not stated),-7,0.7,5.9,-1,-3,-2.6,0,0.4
CC(=O)c1nnn(-c2c(F)cccc2F)c1C,2,0.5,2.8,2,-17,1.5,-1,3.3
O=C(CCN1C(=O)C2C3C=CC(C3)C2C1=O)Nc1ccc(F)cc1 (configuration not stated),-2,1.7,2.5,-5,-18,1.6,-2,1.9
O=C(CSCc1ccc(Cl)cc1)Nc1ccc(O)cc1C(=O)O,-2,1.1,-5.9,0,-6,1.8,-3,3.3
COC(=O)c1ccccc1NC(=O)c1cc[n+](C)cc1,-6,0.6,9.0,-1,1,-5.2,·,3.1
CC(=O)c1cccc(NC(=O)c2cccc(S(=O)(=O)N3CCOCC3)c2)c1,5,0.0,0.3,4,-12,3.6,-1,1.2
COc1cc([C@@H]2CC=C(C(=O)O)[C@H](c3ccccc3F)N2S(=O)(=O)c2ccc(C)cc2)cc(OC)c1OC,-2,0.5,·,·,·,·,-5,-0.2
CC(=O)NC(C)C12CC3CC(CC(CC(=O)O)(C3)C1)C2 (configuration not stated),9,-0.3,1.9,-13,1,3.3,-3,2.9
CCN1C(=NCC2CC2)N[C@@H](c2ccccc2)C(C(=O)OC)=C1C,0,1.1,1.4,·,·,·,2,3.9
CC(C)=CC(=O)NCCc1ccccc1,3,-5.0,1.0,-4,-7,1.8,-4,5.9
COc1ccc(S(=O)(=O)N2CCC(c3cc(-c4cccc5ccccc45)n[nH]3)CC2)cc1,18,0.3,4.0,6,51,-0.4,49,4.3
CCOC(=O)c1sc(C)c2c1NC(C)(c1cccs1)NC2=O (configuration not stated),-5,0.7,-57,23,8,-0.4,2,3.5
COc1ccccc1NS(=O)(=O)c1ccccc1C#N,6,0.1,2.2,8,-2,-0.9,-2,1.4
COc1cccc(C(=O)N2CCCC(Nc3ccc(C)c(C)c3)C2)c1 (configuration not stated),-1,-0.2,-0.1,-2,21,-0.1,5,-1.0
N#CC1=C(N)OC2=C(C(=O)CCC2)C1c1ccccc1 (configuration not stated),15,-0.1,3.2,0,-11,2.2,1,4.0

# Gathered by group, the compounds so far with a halogen
SMILES,Beta2AR agonist,Bfl-1 A1 inh,UCH37 DUB inh,Calb FLC,T cruzi inh,RanGTP-Imp inh,Beta cell apopt,LANA-H2B inh
Cn1nc(C(=O)OCC(=O)c2ccc(Cl)cc2)c2ccccc2c1=O,-10,0.1,-0.4,·,·,·,-5,-4.4
O=C(CNC(=O)c1sc2ccccc2c1Cl)NCc1cccc(C(F)(F)F)c1,2,1.0,2.7,3,0,-4.2,·,3.5
Clc1cccc(Cl)c1-c1nnc2cccc(Cl)n12,1,2.5,-0.8,11,-1,3.4,-10,-3.9
Cc1cc(C)cc(NC(=S)/C(=C(\[O-])c2ccc(Cl)s2)[n+]2cccc(C)c2)c1,3,-0.1,3.1,-17,-2,1.5,-4,-2.2
CCOC(=O)N1CCC(NC(=O)CS(=O)(=O)Cc2nc(-c3ccccc3Cl)oc2C)CC1,0,-0.6,1.5,-4,1,-1.6,-1,-3.6
CC(=O)c1nnn(-c2c(F)cccc2F)c1C,2,0.5,2.8,2,-17,1.5,-1,3.3
O=C(CCN1C(=O)C2C3C=CC(C3)C2C1=O)Nc1ccc(F)cc1 (configuration not stated),-2,1.7,2.5,-5,-18,1.6,-2,1.9
O=C(CSCc1ccc(Cl)cc1)Nc1ccc(O)cc1C(=O)O,-2,1.1,-5.9,0,-6,1.8,-3,3.3
COc1cc([C@@H]2CC=C(C(=O)O)[C@H](c3ccccc3F)N2S(=O)(=O)c2ccc(C)cc2)cc(OC)c1OC,-2,0.5,·,·,·,·,-5,-0.2
